SARS PLP yeast = blocks SARS-CoV papain-like protease in a yeast assay | AID 485353 | S. cerevisiae expressing SARS-CoV PLpro, growth rescue; control for the full effect not named in the record | 0.19% of 330,000 active | Potency, µM (titrated, usually from 32.9 µM), for the others: top-dose activity, positive = growth rescue; further: 0% is about no effect; nearly all actives have a fitted effect of over 55% in size; growth read by luminescence after 48 h
2A StopGo = FMDV 2A StopGo reporter, luciferase signal | human cells with a luciferase reporter of 2A StopGo recoding; control for the full effect not named in the record | Potency, µM (highest dose often 57.9 µM), for inactives: top-dose signal change, negative = less light | 1.2% of 410,000 active; active = well fitted falling curve with a large enough effect; inconclusive = small, poorly fitted or top-dose-only effect; inactive = no such curve, though single readings can be large or run the other way; tested in HEK293T cells; further: on the % scale 0 is the no-effect control and ±100 the full control effect; nearly all actives have a fitted effect of over 45% in size; luciferase light after 4 h
RE007 growth inh = less growth of the S. pombe RE007 Vpr strain | S. pombe RE007 Vpr strain, BacTiter-Glo ATP luminescence, 24 h; control for the full effect not named in the record | Potency, µM (top dose mostly 92.2 µM), for the others: at the top dose activity change, negative = less growth | 0.21% of 360,000 active; active = well fitted falling curve with a large enough effect; inconclusive = small, poorly fitted or top-dose-only effect; inactive = no such curve, though single readings can be large or run the other way;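 further: on the % scale 0 is the no-effect control and ±100 the full control effect; nearly all actives have a fitted effect of over 50% in size; the assay follows cell death caused by Vpr and the record does not say whether a fall means rescue or toxicity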
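Fission yeast RE007 carrying one integrated HIV-1 vpr copy, seeded at OD 0.01 in PMG+AL medium with 23 nL pinned compound. Grown 24 h at 30 degrees; viability read by BacTiter-Glo luminescence after 5 min.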
Cruzain noTriton = blocks cruzain activity in detergent-free assay. Potency, µM, inactives show max response, negative = inhibition, usual class: inhibitors. 2.3% of 200,000 active. AID 1476. purified cruzain, Z-FR-AMC fluorescence, no detergent; active means well fitted curve in the direction sought with a large enough effect; inconclusive means small, poorly fitted or top-dose-only effect, or another doubt; inactive means no such curve, though single readings can be large; an effect the other way counts as inactive or inconclusive;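 further: plate controls were enzyme without inhibitor for no effect and buffer without enzyme for full effect; nearly all actives have a fitted effect of over 40% in size; top concentration of the series not given in the record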
Target sequence (P25779 123-467 limits assumed): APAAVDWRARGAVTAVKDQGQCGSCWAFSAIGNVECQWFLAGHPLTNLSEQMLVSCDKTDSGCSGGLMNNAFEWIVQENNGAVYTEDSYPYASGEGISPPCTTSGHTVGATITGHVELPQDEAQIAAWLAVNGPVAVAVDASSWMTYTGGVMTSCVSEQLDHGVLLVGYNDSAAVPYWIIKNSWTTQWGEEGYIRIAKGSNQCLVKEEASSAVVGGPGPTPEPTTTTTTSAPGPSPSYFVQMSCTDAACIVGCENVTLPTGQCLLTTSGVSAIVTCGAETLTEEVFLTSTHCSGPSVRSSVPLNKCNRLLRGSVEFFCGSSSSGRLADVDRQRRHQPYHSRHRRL
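Purified cruzain at 1.5 nM, pre-incubated 15 min with compound at room temperature in 100 mM sodium acetate pH 5.5, 5 mM DTT, 0.00005% Triton X-100. Reaction started with 2 uM Z-FR-AMC; AMC fluorescence increase over 60 s gives rate.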
Cruzain inh Det = cruzain (T. cruzi) inhibition with detergent; AID 1478; purified cruzain, Z-FR-AMC fluorescence, 0.01% Triton; 0.43% of 200,000 active; Potency, µM, inactives show max response, negative = inhibition, hits mostly inhibitors; active means well fitted curve in the direction sought with a large enough effect; inconclusive means small, poorly fitted or top-dose-only effect, or another doubt; inactive means no such curve, though single readings can be large; an effect the other way counts as inactive or inconclusive;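 further: plate controls were neutral wells for no effect and buffer without enzyme for full effect; nearly all actives have a fitted effect of over 40% in size; top concentration of the series not given in the record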
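In this qHTS format, compounds are incubated with 1.5 nM cruzain for 15 min at room temperature before 2 uM Z-FR-AMC is added. Release of AMC is followed at 360/450 nm, and progress is taken as the 60 s fluorescence difference.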
NS1 function inh = blocks influenza NS1 protein function; S. cerevisiae slowed by influenza A NS1, growth recovery by OD600; Potency, µM (series often up to 46.1 µM), without a hit: at the highest dose activity, positive = more growth; 0.4% of 270,000 active; further: actives are rising curves; nearly all actives have a fitted effect of over 50% in size
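Compounds were scored for reversing the slow growth caused by influenza A NS1 in S. cerevisiae, measured by optical density at 600 nm. Assay medium contained 2% galactose at pH 6.0; NS1-free yeast of the same strain were the positive control.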
LASV entry inh = blocks Lassa virus binding to or entry into cells. Lassa virus pseudotype entry inhibition, cell reporter; control for the full effect not named in the record. Potency, µM (doses to about 37.9 µM), without a hit: top-dose activity change, negative = inhibition, actives largely listed as inhibitors. 1.2% of 300,000 active. AID 540256; active means well fitted inhibition curve with a large enough effect; inconclusive means small, poorly fitted or top-dose-only effect, or effect the other way; inactive means flat fitted curve, though single readings scatter; tested in HEK293 cells; further: on the % scale 0 is the no-effect control and ±100 the full control effect; nearly all actives have a fitted effect of over 50% in size; luciferase read-out
Marburg entry inh = blocks Marburg virus binding to or entry into cells | Marburg virus pseudotyped entry inhibition, cell reporter; control for the full effect not named in the record; about a third of the inactives were read at about 46 µM | Potency, µM (highest dose often 37.8 µM), inactives show top-dose activity change, negative = inhibition, actives largely listed as inhibitors | 1.8% of 300,000 active | AID 540276; active = well fitted inhibition curve with a large enough effect; inconclusive = small, poorly fitted or top-dose-only effect, or effect the other way; inactive = flat fitted curve, though single readings scatter; tested in HEK293 cells; about a fifth of its hits are not listed in these tables; further: on the % scale 0 is the no-effect control and ±100 the full control effect; luciferase read-out
An asterisk follows results filed as active; ? = inconclusive; . = no result given; [ ] = remark or other dose. Unless noted, the call rests on the fitted dose curve; in most records, active means well fitted rising curve with a large enough effect; inconclusive means small, poorly fitted or top-dose-only effect; inactive means no such curve, though single readings can be large or run the other way. Potency means the concentration at half of the fitted maximal effect.

smiles | RE007 growth inh | NS1 function inh | Cruzain noTriton | LASV entry inh | 2A StopGo | Marburg entry inh | SARS PLP yeast | Cruzain inh Det
CCc1ccc(NC(=O)C2CCC(CNC(=O)[C@@H]3Cc4ccccc4CN3)CC2)cc1 (stereo not given in full) | 36% | 9% | . | . | 0% | . | -7% | .
Cn1c(=O)[nH]c(=O)c2c1nc(SCC(=O)O)n2CCc1ccccc1 | 27% | -10% | 0% | -10% | -25% | 3% | 6% | 0.6%
Cc1ccc(NC(=O)Cn2nc(C)c3nn(-c4ccc(Cl)cc4)c(C)c3c2=O)cc1C | . | . | -7% | 21%[46.1 µM] | -27% | . | . | 2.3%
O=C(Nc1ccccc1Cl)C1CC(=O)N(c2ccccc2)C1 (stereo not given) | 9% | 5% | . | -3% | -18% | -10%[14.2 µM] | 0% | .
Cc1nn(-c2cccc(C(F)(F)F)c2)c(Cl)c1/C=N/n1cnnc1 | -1% | -73% | 3% | 24% | -15% | ? | -10% | -3.7%
COc1ccc(S(=O)(=O)Nc2cccc(-c3ccc(N4CCOCC4)nn3)c2)cc1F | . | . | -7% | 4%[46.1 µM] | 34%[activator] | . | . | -4.2%
CC(CNCC1CCCO1)COc1ccccc1 (stereo not given) | -11% | -2% | 5% | -16% | -3% | -2% | -10% | 5.9%
C1=C(c2ccccc2)CCN(c2nc3ccccc3n3cnnc23)C1 | 25% | -64% | -9% | . | -12% | . | 7% | -5.8%
COC(=O)c1ccc(NC(=S)NC2CC3CCC2C3)cc1 (stereo not given) | -7% | -47% | -15% | 5% | 0% | ? | 6% | -6.8%
COc1ccccc1Cn1c(SCC(N)=O)nc2c(oc3ccccc32)c1=O | 7% | -9% | . | 0% | -22% | -4% | 0% | .
CC(C)Cc1ccc(S(=O)(=O)N2CCN(c3ccccn3)CC2)cc1 | 4% | -1% | . | -4%[46.1 µM] | ? | 1%[46.1 µM] | 1% | .
CN(C(=O)CNC(=O)OCc1ccccc1)c1ccc(Br)cc1C(=O)c1ccccc1Cl | ? | 9% | 13% | ? | ? | 5.8µM* | -15% | -5.9%
COc1ccc(CC(=O)NCc2n[nH]c(=S)n2-c2ccc(Br)cc2)cc1 | 13% | . | . | 28% | -8% | ? | -1% | .
COc1c(C)cc(C(=O)C2CCCN(S(=O)(=O)N(C)C)C2)cc1C (stereo not given) | 7% | -10% | . | -20% | ? | -25% | 1% | .
C/C(CC(=O)NCc1ccccc1)=N\NC(N)=S | 2% | . | . | -14% | -15% | ? | 29% | .

13 entries from above, reformatted:
Second line of a record: RE007 growth inh | NS1 function inh | Cruzain noTriton | LASV entry inh | 2A StopGo | Marburg entry inh | SARS PLP yeast | Cruzain inh Det
- CCc1ccc(NC(=O)C2CCC(CNC(=O)[C@@H]3Cc4ccccc4CN3)CC2)cc1 (stereo not given in full)
  36% | 9% | . | . | 0% | . | -7% | .
- Cn1c(=O)[nH]c(=O)c2c1nc(SCC(=O)O)n2CCc1ccccc1
  27% | -10% | 0% | -10% | -25% | 3% | 6% | 0.6%
- Cc1ccc(NC(=O)Cn2nc(C)c3nn(-c4ccc(Cl)cc4)c(C)c3c2=O)cc1C
  . | . | -7% | 21%[46.1 µM] | -27% | . | . | 2.3%
- O=C(Nc1ccccc1Cl)C1CC(=O)N(c2ccccc2)C1 (stereo not given)
  9% | 5% | . | -3% | -18% | -10%[14.2 µM] | 0% | .
- Cc1nn(-c2cccc(C(F)(F)F)c2)c(Cl)c1/C=N/n1cnnc1
  -1% | -73% | 3% | 24% | -15% | ? | -10% | -3.7%
- COc1ccc(S(=O)(=O)Nc2cccc(-c3ccc(N4CCOCC4)nn3)c2)cc1F
  . | . | -7% | 4%[46.1 µM] | 34%[activator] | . | . | -4.2%
- CC(CNCC1CCCO1)COc1ccccc1 (stereo not given)
  -11% | -2% | 5% | -16% | -3% | -2% | -10% | 5.9%
- C1=C(c2ccccc2)CCN(c2nc3ccccc3n3cnnc23)C1
  25% | -64% | -9% | . | -12% | . | 7% | -5.8%
- COC(=O)c1ccc(NC(=S)NC2CC3CCC2C3)cc1 (stereo not given)
  -7% | -47% | -15% | 5% | 0% | ? | 6% | -6.8%
- COc1ccccc1Cn1c(SCC(N)=O)nc2c(oc3ccccc32)c1=O
  7% | -9% | . | 0% | -22% | -4% | 0% | .
- CC(C)Cc1ccc(S(=O)(=O)N2CCN(c3ccccn3)CC2)cc1
  4% | -1% | . | -4%[46.1 µM] | ? | 1%[46.1 µM] | 1% | .
- CN(C(=O)CNC(=O)OCc1ccccc1)c1ccc(Br)cc1C(=O)c1ccccc1Cl
  ? | 9% | 13% | ? | ? | 5.8µM* | -15% | -5.9%
- COc1ccc(CC(=O)NCc2n[nH]c(=S)n2-c2ccc(Br)cc2)cc1
  13% | . | . | 28% | -8% | ? | -1% | .

Continued:
smiles | RE007 growth inh | NS1 function inh | Cruzain noTriton | LASV entry inh | 2A StopGo | Marburg entry inh | SARS PLP yeast | Cruzain inh Det
COc1ccc(/C=N/NC(=O)Cn2cnc3c2c(=O)n(C)c(=O)n3C)cc1 | -4% | 2% | . | 4%[46.1 µM] | -24% | 27%[46.1 µM] | 2% | .
CC1CC(=S)Nc2ccccc2N1Cc1ccccc1 (stereo not given) | 6% | -13% | -4% | ? | -2% | -18% | -52% | -6.7%
CC(C)(C)c1ccc(C(=O)c2c[nH]c(C(=O)NCc3ccco3)c2)cc1 | 3% | -6% | -28% | -7% | -14% | 33% | 4% | 1.4%
CC(C)(C)Cc1nnc(NC(=O)CCc2ccccc2)s1 | 1% | 19% | . | . | 32%[activator] | . | -7% | .
CCOc1ccc(NC(=O)c2oc3ccccc3c2NC(=O)Cc2cccs2)cc1 | . | . | -19% | 0%[46.1 µM] | 20% | 2%[46.1 µM] | . | -7.4%
O=C(N/C(=C\c1cccc(Br)c1)C(=O)N1CCOCC1)c1ccco1 | 5% | -10% | . | 4% | -13% | 3%[46.1 µM] | -1% | .
CC1CN(C2=N/C(=C/c3ccc4c(c3)OCO4)C(=O)N2)CC(C)O1 (stereo not given) | 7% | 1% | . | ? | 6% | -13%[46.1 µM] | 0% | .
COc1cccc(NC(=O)CN(C)C(=O)CNC(=O)c2ccccc2F)c1 | 5% | 4% | . | 22%[46.1 µM] | -9% | 0%[46.1 µM] | 0% | .
COc1ccc(C(=O)C2CCCN(Cc3cnc(N4CCOCC4)s3)C2)c(OC)c1 (stereo not given) | -23% | -3% | . | -19% | ? | ? | -1% | .
Cc1nc2nc(SCC(=O)NCc3ccccc3)nn2c(C)c1Cc1ccccc1Cl | . | . | 5% | -5%[46.1 µM] | -23% | 29%[46.1 µM] | . | -6.8%
O=C(O)CCSc1nc2ccccc2n1-c1ccccc1 | 8% | 0% | . | 4%[46.1 µM] | -11% | -11%[46.1 µM] | 0% | .
Cc1nn(CC(=O)NCc2ccc(OC(C)C)cc2)c(=O)c2cc3occc3n12 | . | 9% | 5% | . | . | 0% | -2% | 2.4%
CCOC(=O)c1nnn(-c2ccccc2C#N)c1C | -4% | 4% | -15% | -2% | -4% | 4% | 1% | 3.1%
COc1ccccc1CNc1nc2ccccc2c2nc(-c3cccc(C)c3)nn12 | . | . | -16% | . | 23% | ? | . | 0.3%
CCOc1ccccc1NS(=O)(=O)c1c(-c2ccc(C)cc2)csc1C(=O)OC | . | . | ? | ? | -12% | . | . | -7.8%
COC(=O)c1cc(NC(=O)c2cc3sccc3n2Cc2ccc(Cl)cc2)cc(C(=O)OC)c1 | . | . | 7.9µM* | 1%[46.1 µM] | -23% | ? | . | -0.1%
N/C(=N/OC(=O)c1cccc([N+](=O)[O-])c1)c1cccc([N+](=O)[O-])c1 | -5% | -5% | . | -1% | 31%[activator] | ? | 0% | .
CCCCc1ccc(NC(=O)CSc2nc(=O)n(CCCN3CCOCC3)c3c2CCC3)cc1 | 2% | . | . | 3%[46.1 µM] | -1% | ? | 2% | .
CN1CCc2nc3sc(C(=O)NC4CC4)c(N)c3cc2C1 | -14% | ? | . | . | 31% | . | 0% | .
Cc1cc(NS(=O)(=O)c2ccc(NS(=O)(=O)c3ccc(CC(C)C)cc3)cc2)nc(C)n1 | 10% | 5% | . | 2%[46.1 µM] | 69%[activator] | 16%[46.1 µM] | -1% | .
CCCCOc1ccc(-c2[nH]ncc2C=O)cc1 | 19% | . | . | 19% | 39%[activator] | ? | -5% | .
CCOc1ccc(S(=O)(=O)Nc2cnc3ccccc3c2)cc1 | -5% | -8% | . | ? | -9% | -28%[46.1 µM] | -2% | .
O=S(=O)(NC1CCSc2ccccc21)c1ccccc1 (stereo not given) | 8% | -6% | . | 1%[46.1 µM] | 15% | ? | -1% | .
NNC(=O)c1ccc([N+](=O)[O-])c(CS(=O)(=O)c2ccc(Cl)cc2)c1 | 73% | 2% | 0% | 3% | 17% | -5% | -1% | 4.4%
COc1cc(C(=O)OCC(=O)Nc2c(F)cccc2F)cc(OC)c1C | ? | 6% | . | 4% | 15% | ? | 1% | .
O=C(Nc1nc2ccccc2[nH]1)c1ccc(F)c(S(=O)(=O)N2CCOCC2)c1 | -10% | -3% | -4% | -4% | -8% | -26% | 8% | -6.8%
COc1cc(O)c(C(=O)O)c(-c2cc(O)c(O)cc2C)c1 | -3% | 1% | . | . | -17% | . | -2% | .
CCN1CCN(S(=O)(=O)c2ccc(C(C)(C)C)cc2)CC1 | -8% | -6% | . | 1% | -24% | 18% | -3% | .
O=C1CCC(=O)N1OCCCOc1ccc2c(c1)CCC2 | -27% | -10% | 6% | -5% | 21% | 0% | -1% | 1.0%
Cc1ccccc1Cn1c(CN2CCN(c3ccc(F)cc3)CC2)nc2c1c(=O)n(C)c(=O)n2C | . | -22% | ? | . | . | . | 22% | -2.9%
CCOC(=O)C1CCN(C(=O)C2CCC(=O)N(Cc3cccc(C(F)(F)F)c3)C2)CC1 (stereo not given) | 10% | 10% | . | 0% | 13% | -2% | 4% | .
CCOc1ccc(NC(=O)N(O)C2(C#N)CCCCC2)cc1 | 6% | . | . | 15% | -7% | 3% | . | .

No enrichment for hits; about 4.8% have a hit in one of these screens.
